Source: PubChem BioAssay
HCMV NEC inh: inhibitors of HCMV UL50-UL53 interaction, biochemical, HTRF. normalized percent inhibition. 190,000 tested, 0.15% active. inhibition, % (no concentration beside the values). AID 1918969, 2023;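 active means both replicates at 50% or more, plus weaker picks with an unusually low signal ratio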;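 further: stock transfer was 100 nL into about 20 µL; 0% = negative control wells and 100% = wells with untagged competitor protein; inactives centre near -12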
Sa growth inh: S. aureus growth inhibition at 42 and 30 °C, primary screen, LtaS inhibitor project, RN4220, two temperatures; OD600, 20 h, 42 °C; hits give low values; relative growth, % (test concentration not listed); 170,000 tested, 0.53% active;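 active means growth at 42 °C up to 50% and 20 or more points under that at 30 °C, or under 10% at both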;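 further: 300 nL library stock went into each well; scaled to the means of positive and negative controls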
GIV-Gai inh: inhibitors of GIV peptide binding to Galpha-i3, primary screen, biochemical, fluorescence polarization, FITC-GIV GBA peptide, rat Galphai3 | Guanine nucleotide-binding protein G(i) subunit alpha-3 (Rattus norvegicus), P08753 | 90 min; hits give low values; scaled: aluminum fluoride 0%, vehicle 100% | percent of control (FP), % (concentration not given with the values) | 210,000 tested, 0.42% active | AID 1224905, 2016;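 active means replicate mean at 85% of control or lower, very high polarization wells dropped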;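 further: wells of about 15 µL received 100 nL stock; the first replicate is given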
Target sequence (P08753 whole entry, looked up): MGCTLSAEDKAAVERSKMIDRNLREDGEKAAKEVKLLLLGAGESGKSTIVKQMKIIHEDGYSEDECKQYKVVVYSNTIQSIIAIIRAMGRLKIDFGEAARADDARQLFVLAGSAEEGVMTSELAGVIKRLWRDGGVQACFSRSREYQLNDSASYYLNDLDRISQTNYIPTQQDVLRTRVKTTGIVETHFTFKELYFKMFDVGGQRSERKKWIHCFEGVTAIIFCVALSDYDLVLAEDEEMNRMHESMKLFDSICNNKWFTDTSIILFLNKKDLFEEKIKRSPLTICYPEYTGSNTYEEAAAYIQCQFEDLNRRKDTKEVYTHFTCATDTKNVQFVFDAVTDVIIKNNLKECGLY
Sa growth inh second temp: second read-out of Sa growth inh, no call of its own (marks repeat the call); relative growth, %; measured here: growth at 30 °C;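 optical density after 20 h as mean of two plates; 100% = untreated growth and lower means inhibition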
Starred values were filed as active, the others as inactive; / = not tested or not shown; & = joins results of further samples.

Values run as follows: HCMV NEC inh | Sa growth inh | Sa growth inh second temp | GIV-Gai inh
Cc1cc(OCC(=O)Nc2sc3c(c2C#N)CCC(C)C3)ccc1Cl (configuration not stated)
  -54 | 93 | 87 | 102
O=C1SCC(c2ccccc2)S1 (configuration not stated)
  -19 | 125 | 87 | 101
S=C(NCc1ccc2[nH]c3c(c2c1)CCCC3)Nc1ccccc1
  / | 91 | 84 | 97
CC1CCN(C(=O)c2cccc(Nc3nc4ccccc4n4nnnc34)c2)CC1
  -15 | 114 | 98 | 114
CC1(NC(=S)NCCO)CCS(=O)(=O)C1 (configuration not stated)
  -2 | 96 | 89 | 106
COCc1c(C(=O)NCc2nnc3ccccn23)oc2ccccc12
  -10 | 117 | 79 | /
CCOC(=O)c1cnc2ccc(OC)cc2c1Nc1cccc(C(C)=O)c1
  -36 | 95 | 86 | 96
CCCNC(=O)Cc1ccc(-n2c(=O)c3ccccc3n(CC(=O)Nc3ccc4c(c3)OCO4)c2=O)cc1
  3 | / | / | 98
Nc1nonc1-c1nc2ccccc2n1CC(=O)Nc1ccc(F)cc1
  14 | 113 | 98 | 109
COc1ccc(CCNC(=O)Cc2c(C)c3cc4c(C)coc4c(C)c3oc2=O)cc1
  3 | 91 | 88 | 107
COc1ccc(-c2csc(=Nc3ccccc3)n2CCO)cc1F
  -23 | 109 | 69 | 102
COc1cc(C)c(S(=O)(=O)N2CCN=C2c2ccccc2)cc1C
  -12 | 119 | 81 | 100
CN=C(C)/C(C(=O)OC)=C(/O)c1snnc1C
  8 | 106 | 107 | 106
COc1ccccc1/C=C/C=c1\sc2nc(-c3cc(OC)c(OC)c(OC)c3)nn2c1=O
  / | 115 | 77 | 111
O=C1CC(c2ccccc2)=Nc2ccccc2N1
  -38 | / | / | 116&101
C/C(=N\N=C(N)N)c1cccs1
  -42 | 17 | 1 | 105
O=C(O)CC1(CC(=O)N2CCN(C(c3ccccc3)c3ccccc3)CC2)CCCC1
  -6 | 145 | 98 | 104
O=C(COC(=O)c1ccc2[nH]c3c(c2c1)CCCC3)NCc1ccco1
  -28 | 95 | 94 | /
COC(=O)c1cc(S(=O)(=O)NCCCc2ccco2)c[nH]1
  -27 | 103 | 95 | 98
Cc1ccc2c(Cl)c(C(=O)N3CCN(CCc4ccncc4)CC3)sc2c1
  -15 | / | / | 99
COC(=O)c1c(C)oc2ccc(N(C(C)=O)S(=O)(=O)c3ccc4ccccc4c3)cc12
  / | 81 | 87 | 108
Cc1cccc(-c2noc(-c3ccccc3NC(=O)C3CC(=O)N(c4ccccc4C)C3)n2)c1 (configuration not stated)
  -8&-25 | 96 | 89 | 100&105
N/C(CSc1ccc(Cl)cc1)=N\S(=O)(=O)c1ccc(Cl)cc1
  -21 | 99 | 92 | 102
Cc1ccc(NC(=O)N2CCCC2c2ccc(Cl)cc2)cc1C (configuration not stated)
  6 | / | / | 108
Cc1ccc(S(=O)(=O)N2CCCc3cc(NC(=O)c4c(F)cccc4F)ccc32)cc1
  / | 102 | 91 | 101
O=C(O)C1CCC(N2C(=O)C3C4C=CC(C4)C3C2=O)CC1 (configuration not stated)
  -9 | 137 | 103 | 101
Cc1ccc(Nc2cc(C(=O)NC3CCCC3)c3ccccc3n2)cc1C
  / | 103 | 88 | 100
CCN(CC)C(=O)COc1c(-c2ccco2)oc2ccccc2c1=O
  -68 | 88 | 87 | 98
Cc1nc(-c2ccc(C)c(N3CCN(C(=O)Nc4ccccc4C(F)(F)F)CC3)c2)no1
  / | 91 | 87 | 101
CNC(=O)CN(C#N)c1nc(C)cc(C)n1
  12 | 89 | 79 | 102
CCOC(=O)C1=C(Nc2ccc(OC)cc2)OCC1=O
  -33 | 91 | 80 | 103
COCC(C)N=C1NN=C(c2cc(C)n(-c3cc(C(=O)OC)cc(C(=O)OC)c3)c2C)CS1 (configuration not stated)
  -5 | 83 | 88 | /
CC(C)Nc1ncnc2c1cnn2-c1ccc(Cl)cc1
  -16 | / | / | 105
Cc1cc(C(=O)CSc2nnc(C3CC3)n2C2CC2)c(C)s1
  -20 | 75 | 45 | /
c1ccc(-c2cc3c(N4CCc5ccccc54)ncnc3s2)cc1
  3 | 118 | 89 | 103
CC(C)c1ccc(NC(=O)c2cc(S(=O)(=O)NCc3ccccc3Cl)ccc2F)cc1
  / | 110 | 82 | 105
CC(C)Cn1c(=O)c2ccc(C(=O)NC3CCCC3)cc2n2c(SCC(=O)NC(C)(C)C)nnc12
  -6 | / | / | 111
O=c1[nH]n(-c2ccccc2)c(=O)c2ccccc12
  -2 | 107 | 87 | 101
Cc1cccc(NC(=O)COC(=O)CCCC2=NS(=O)(=O)c3ccccc3N2)c1
  / | 94 | 83 | 107
CCCCN1Cc2cc(C(=O)c3cc(OC)ccc3O)cnc2NC1=O
  2 | 99 | 97 | /
CCN=c1cc(N)n(CC)c2sc(C(=O)OCC)c(N)c12
  -2 | 103 | 88 | 106
O=C(O)c1cccc(S(=O)(=O)NOCc2ccccc2)c1
  6 | 103 | 104 | /
COCc1nc2c([nH]1)C(c1ccccc1COc1ccc(Cl)cc1)C(C#N)=C(N)O2 (configuration not stated)
  -19 | 90 | 66 | /
O=c1cc(C(F)(F)F)[nH]c2ccc(Br)cc12
  -7 | 26 | 10 | 99
Cc1ccc(-n2nc(C(=O)Nc3ccc(F)cc3Cl)c(=O)n(C)c2=O)cc1
  / | 104 | 90 | 101
CCOC(=O)c1c(C)[nH]c(C)c1S(=O)(=O)N1CCC(C(=O)Nc2ccc(C)c(Cl)c2)CC1
  / | 89 | 85 | 106
CC1(C)Cc2c(sc3nc(NCCCO)[nH]c(=O)c23)CO1
  -35 | 107 | 75 | 101
CCN(CC)S(=O)(=O)c1ccc(C(=O)Nc2nccs2)cc1
  -19&-26 | 93 | 85 | /
Cc1cccc(CSCC(=O)O)c1
  -3 | 94 | 93 | /
CCOc1ccc(N(CC(=O)NC2CCCCCC2)S(=O)(=O)c2c(C)[nH]c(=O)[nH]c2=O)cc1
  -4 | 105 | 88 | 100

Carrying on:
Values run as follows: HCMV NEC inh | Sa growth inh | Sa growth inh second temp | GIV-Gai inh
CSC(=Nc1cccc(C(F)(F)F)c1)SC
  -13 | 80 | 79 | /
O=C(CN1C(=O)C2CC=CCC2C1=O)Nc1ccc(S(=O)(=O)NC2=NCCCCC2)cc1 (configuration not stated)
  -4 | 87 | 95 | /
CCn1cc(C(=O)NCCCOC)c(=O)c2cc(S(=O)(=O)N3CCc4ccccc4C3)ccc21
  -5 | 103 | 88 | 101
O=C(CN1C(=O)CCn2nc(-c3ccc(Cl)cc3)cc21)NCC1CCCO1 (configuration not stated)
  -7 | / | / | 107
CCCCCCn1c(=O)[nH]c2nc3cc(N)c(C)cc3nc2c1=O
  -39 | 91 | 77 | 111
O=S(=O)(c1ccc2c(c1)OCCO2)N1CCN(C(=S)Nc2cccc(Cl)c2)CC1
  -7 | 86 | 84 | /
CCCC(=O)Oc1cccc(-n2cnnn2)c1
  -48 | / | / | 104
CCCN1CCN(C(=O)C2CCS(=O)(=O)C2)CC1 (configuration not stated)
  -7 | 106 | 80 | 102
Cn1c(=O)c2c(C(=O)Nc3cc(F)ccc3F)cc(=O)n(C)c2n(C)c1=O
  -12 | / | / | 105
Cc1ccc(CNC(=O)C2CCCN(S(=O)(=O)c3ccc4c(ccn4C)c3)C2)cc1 (configuration not stated)
  / | 82 | 89 | 102
Cn1cc(C(=O)c2ccccc2)cc1-c1nc2ccccc2n1C
  -16 | 108 | 73 | 102
C=CCNC(=O)CCN1C(=O)COc2ccccc21
  / | 118 | 88 | 106
C[C@]1(O)NC([S-])=C(C#N)C(c2ccc(Cl)cc2)C1[n+]1ccccc1 (some centres not stated)
  -2 | 92 | 83 | /
NC(=O)c1sccc1NS(=O)(=O)c1ccc(Cl)c(Cl)c1
  -5 | 79 | 57 | 102
O=C(O)c1ccccc1NCN1C(=O)c2ccccc2C1=O
  -22 | 110 | 109 | 106
O=S(=O)(c1ccccc1)c1nc(-c2ccc(F)cc2)oc1NC1CC1
  13 | / | / | 105
Cc1c(C(=O)Nc2nc3ccccc3s2)oc2c1C(O)CC(C)(C)C2 (configuration not stated)
  -21 | 108 | 98 | 104
Cc1cccc(C)c1NC(=O)CN(C)S(=O)(=O)c1ccc2c(c1)n(C)c(=O)c(=O)n2C
  8 | 103 | 90 | 105
CCn1c2c(c(SC(N)c3cccc4ccccc34)nc1=O)CCC2 (configuration not stated)
  -24 | / | / | 101
CSc1ncc(C(=O)Nc2cccc(C)c2C)c(-c2ccccc2)n1
  / | 108 | 93 | 100

Given tab-delimited: 6 of the compounds above.
smiles	HCMV NEC inh	Sa growth inh	Sa growth inh second temp	GIV-Gai inh
CCOC(=O)c1c(C)[nH]c(C)c1S(=O)(=O)N1CCC(C(=O)Nc2ccc(C)c(Cl)c2)CC1	/	89	85	106
CC1(C)Cc2c(sc3nc(NCCCO)[nH]c(=O)c23)CO1	-35	107	75	101
CCN(CC)S(=O)(=O)c1ccc(C(=O)Nc2nccs2)cc1	-19&-26	93	85	/
Cc1cccc(CSCC(=O)O)c1	-3	94	93	/
CCOc1ccc(N(CC(=O)NC2CCCCCC2)S(=O)(=O)c2c(C)[nH]c(=O)[nH]c2=O)cc1	-4	105	88	100
CSC(=Nc1cccc(C(F)(F)F)c1)SC	-13	80	79	/

Continued.
Values run as follows: HCMV NEC inh | Sa growth inh | Sa growth inh second temp | GIV-Gai inh
O=C(c1cnc2sc(N3CCCCC3)nn2c1=O)N1CCCC1
  -5 | 105 | 99 | 104
COc1ccc(NC(=O)CN2C(=O)C(C)Oc3ccccc32)cc1 (configuration not stated)
  0 | 107 | 102 | 103
COC(=O)C1=C(C)NC(S)=C(C#N)C1c1cccnc1 (configuration not stated)
  -48 | 89 | 78 | /
O=C(CN1CCC(Cc2ccccc2)CC1)Nc1ccc2c(c1)OCO2
  -28 | 102 | 82 | /
Cc1ccc(-n2c(SCC(=O)N3CCCCC3)nc3c([nH]c4ccccc43)c2=O)cc1
  / | 108 | 86 | 104
CC(NC(=O)c1ccc(Cl)cc1Cl)C(=O)NC1CCCCC1 (configuration not stated)
  40 | 87 | 83 | 100
CC1CC(C)CN(CC(=O)Nc2ccnn2C(C)C)C1 (configuration not stated)
  -23 | 92 | 95 | /
O=C(O)C1=C(CSc2nnnn2CS(=O)(=O)O)CS[C@@H]2C(NC(=O)[C@H](O)c3ccccc3)C(=O)N12 (some centres not stated)
  -18 | -0.7* | -0.5* | /
CCOC(=O)c1oc2ccccc2c1CSc1nnc2n(Cc3ccc(C)cc3)c(=O)c3ccccc3n12
  -20 | 98 | 94 | /
CCCCN1CCc2c1nc1ccc(Br)cc1c2N
  / | 126 | 66 | 110
CCC(O)(c1ccc(OC)cc1)C(CN1CCCC1)c1ccccc1 (configuration not stated)
  -14 | 103 | 86 | 105
CCc1ccc(-c2cn3c(n2)sc2cc(C(=O)NCCc4ccc(OC)cc4OC)ccc23)cc1
  / | 115 | 81 | 113
CC(C)NC(=O)c1ccc(CS(=O)(=O)c2c(Cl)cccc2Cl)o1
  / | 93 | 88 | 99
C=CCC1NCCc2c(Br)cccc21 (configuration not stated)
  / | 97 | 85 | 102
CCOC(=O)CSc1nc(-c2ccc(OCC)cc2)cc(C(F)(F)F)c1C#N
  -38 | 94 | 92 | 105
COc1ccccc1CNC(=O)CN1C(=O)C(C)=C(c2ccc(C)c(C)c2)S1(=O)=O
  -16 | / | / | 103
Cc1ccc(C)c(Nc2cc(C(=O)NCCCN(C)C3CCCCC3)c3ccccc3n2)c1
  -15 | 119 | 93 | 106
O=C(c1cc2occc2c(Nc2ccc(F)cc2)n1)N1CCN(c2ccc(Cl)cc2)CC1
  -12 | / | / | 105
FC(F)(F)c1cc(-c2ccccc2)nc2c(-c3ccccc3)cnn12
  / | 104 | 85 | 94
COc1ccc(Cl)cc1NC(=O)CSC1=Nc2ccccc2C2=NC(CCC(=O)NCc3ccco3)C(=O)N12 (configuration not stated)
  -16 | 98 | 86 | 102
COCCN1C(=O)c2cc3sccc3n2CC1(C)C(=O)NC1CCCC1 (configuration not stated)
  -5 | / | / | 96
CCCCCOc1ccc(/C=C/C(=O)N(CCO)CCO)cc1
  -54 | 79 | 89 | /
N#CCC(=O)NCCc1ccccc1
  -20 | 94 | 86 | /
CC(COc1ccccc1Cc1ccccc1)N1CCCCC1 (configuration not stated)
  -51 | 93 | 81 | /
COc1cc(C2C(C(=O)Nc3ccc(C)cn3)=C(C)NC3=C2C(=O)CCC3)ccc1OCc1ccccc1 (configuration not stated)
  5 | / | / | 107
COc1ccc(Nc2cc(C(=O)NCCc3ccc(C)cc3)c3ccccc3n2)cc1OC
  9 | / | / | 100
CSc1cccc(NC(=O)CN2C(=O)CCc3ccccc32)c1
  -5 | 79 | 93 | 101
Cc1nnc(SC2CCN(S(=O)(=O)c3ccc(F)cc3)CC2)s1
  -10 | 91 | 88 | 99
N#CCn1c(CSc2nc3cc(Cl)ccc3n2Cc2ccccc2)nc2ccccc2c1=O
  -1 | 107 | 96 | /
COc1ccccc1N1CCN(C(C)C(=O)Nc2ccccc2-c2ccccc2)CC1 (configuration not stated)
  -26 | 91 | 96 | /
Cc1nc(-c2cc3ccccc3nc2N2CCN(C(=O)C3CC3)CC2)no1
  -50 | / | / | 107
CCc1cccc(NC(=O)C2c3ccccc3Oc3ccccc32)c1
  / | 95 | 83 | 97
O=C(NCc1ccccc1)c1ccc(CS(=O)c2ccccc2)o1 (configuration not stated)
  / | 105 | 89 | 106
Cc1nc(N2CCCC2)c2c(C(=O)Nc3ccc(Br)cc3F)c(C)oc2n1
  / | 88 | 85 | 97
